Resorufin autofl – resorufin region autofluorescence | hit rate 0.04% among 59,000 | max dye-equivalent concentration, M | Compound fluorescence, resorufin region 547/598 nm, buffer; hits give high values | AID 588; active = above 10 nM dye equivalent; inconclusive = 1 to 10 nM; inactive = 1 nM or less; a few of its hits are not listed in these tables; further: highest value over a series up to 38 µM
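Compounds in 100 mM Tris, pH 8.0, incubated 15 min at room temperature, then fluorescence read at 547 nm excitation/598 nm emission. Signal converted to dye-equivalent concentration via an on-plate six-point resorufin standard curve, per compound concentration.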
A488 autofl – compound fluoresces in the A488 spectral region; compound autofluorescence, A488 spectral region, dye equivalency; hits give high values; max dye equivalency, M; hit rate 0.1% among 59,000; AID 591; active = above 10 nM dye equivalent; inconclusive = 1 to 10 nM; inactive = 1 nM or less; about half of its hits are not listed in these tables;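 further: highest value over a series up to 38 µM; compound alone in buffer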
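Spectroscopic profiling in the A488 region: compounds in pH 8.0 Tris (100 mM), 15 min RT, CCD imaging with 480 nm excitation and 540 nm emission; responses normalized against A488 dye standards.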
A647 fluor – compound fluoresces in the A647 spectral region; Compound fluorescence, A647 channel (570/671 nm), Tris buffer; max dye-equivalent concentration, M; 59,000 tested, under 10 active; active means above 1 µM dye equivalent; inconclusive means 0.1 to 1 µM; inactive means 0.1 µM or less;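 further: values scaled relative to a standard on each plate; highest value over a series up to 38 µM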
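Spectral profiling of library compounds in pH 8.0 Tris: 15 min room-temperature incubation, single ex/em pair (570/671 nm), response normalized to Alexa 647 equivalents.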
AID923 – qHTS Assay for Allosteric/Competitive Inhibitors of Caspase-1: Spectroscopic Profiling in AFC Spectral Region; AID 923, 2007; Potency, µM (series often up to 57.5 µM), for the others: at the highest dose fluorescence increase, most hits filed as activators; hit rate 1.1% among 75,000; compound fluorescence, AFC spectral region (405/520 nm); almost no hit is shown here; active means well fitted activation curve with a large enough effect; inconclusive means small, poorly fitted or top-dose-only effect;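 further: potency means the concentration at half of the fitted maximal effect; 0% is about no effect; scaled to a free AFC standard on each plate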
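Compound autofluorescence profiled at 405 nm ex/520 nm em during kinetic caspase 1 run (50 nM enzyme, 5 uM Ac-WEHD-AFC, HEPES pH 7.5, 10 mM DTT). Titration up to 57 uM; baseline from regression intercept, normalized to AFC standard curve.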
TSHR ag – TSH receptor (human) agonism; P16473; HEK293-CNG-TSHR cells (CNG channel as cAMP sensor), membrane potential dye, cAMP; Potency, µM (highest dose often 57.1 µM), without a hit: at the top dose activation, hits mostly activators; hit rate 0.48% among 73,000; AID 926; active = well fitted activation curve of enough size with the parental cells flat; inconclusive = any curve in the parental cells; inactive = parental cells flat and receptor cells flat or falling; further: potency means the concentration at half of the fitted maximal effect; % of control where 0% means no effect; weak receptor curves with flat parental cells got no call and are not listed
Target sequence (P16473 whole entry, looked up): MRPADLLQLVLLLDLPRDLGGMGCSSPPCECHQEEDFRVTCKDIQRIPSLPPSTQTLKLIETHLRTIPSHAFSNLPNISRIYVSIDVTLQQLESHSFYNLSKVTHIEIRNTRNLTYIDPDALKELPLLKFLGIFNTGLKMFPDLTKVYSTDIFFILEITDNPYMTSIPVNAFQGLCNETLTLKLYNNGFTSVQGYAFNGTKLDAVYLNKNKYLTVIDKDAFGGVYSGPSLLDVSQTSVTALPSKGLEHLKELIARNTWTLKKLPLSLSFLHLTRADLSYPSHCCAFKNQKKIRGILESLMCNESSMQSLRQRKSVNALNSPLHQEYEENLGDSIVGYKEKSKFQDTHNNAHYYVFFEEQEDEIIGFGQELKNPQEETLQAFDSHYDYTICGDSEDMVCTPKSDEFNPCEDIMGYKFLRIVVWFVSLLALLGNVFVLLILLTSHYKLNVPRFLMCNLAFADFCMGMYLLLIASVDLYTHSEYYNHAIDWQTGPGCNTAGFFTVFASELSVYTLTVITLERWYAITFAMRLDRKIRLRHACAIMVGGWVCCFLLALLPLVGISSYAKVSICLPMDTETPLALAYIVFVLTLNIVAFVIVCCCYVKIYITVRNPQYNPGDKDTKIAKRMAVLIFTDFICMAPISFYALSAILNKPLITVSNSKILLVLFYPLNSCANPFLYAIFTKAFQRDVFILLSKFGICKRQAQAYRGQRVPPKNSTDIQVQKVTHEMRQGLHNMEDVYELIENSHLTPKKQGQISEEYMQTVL
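HEK 293 cells stably expressing TSHR and a modified CNG channel, with CNG-only parental cells as counterscreen, were preloaded 60 min at room temperature with membrane potential dye containing 100 uM RO 20-1724. Compound exposure was 30 min, and depolarization was read as fluorescence at 590 nm.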
Starred values were filed as active, the others as inactive; i = inactive; ? = inconclusive; nt = not tested or not shown; & = joins results of further samples; [ ] = remark or other dose.

SMILES	Resorufin autofl	A488 autofl	A647 fluor	AID923	TSHR ag
Cc1[nH]nc2c1C(c1cccc(O)c1)C1=C(CC(C)(C)CC1=O)N2 (stereo not given)	i	i	1e-09	-1.1%	-0.7%
COc1ccc(NC(=O)Cn2nc3n(c2=S)CCC3)cc1	i	i	1.77e-08	-1.9%	0.6%
CCOC(=O)c1[nH]c(C)c(C(=O)NC2CCCCC2)c1C	nt	nt	nt	-2.8%	11.6%
O=C(NCCc1cccc(Cl)c1)c1cccnc1	nt	nt	nt	2.4%	0.0%
CCCn1c(=O)c2[nH]c(-c3ccc(OCC(=O)Nc4ccc(C(C)=O)cc4)cc3)nc2n(CCC)c1=O	nt	nt	nt	0.8%	-2.6%
CC(=O)Nc1nonc1-c1nc2ccccc2n1CC1CC1	i	i	1.3e-08	0.6%	?
Cc1cc(C)n2cc(CSc3ncccc3C(=O)O)nc2n1	i	i	6.4e-09	-1.7%	-15.0%
COc1ccc(OC)c(NC(=O)Cn2c(CCC(=O)O)ccc2-c2cccs2)c1	i	i	7.5e-09	3.1%	-4.6%
CCOC(=O)C1=C(C)Nc2nc(C)nn2C1c1ccc(C)cc1 (stereo not given)	nt	nt	nt	-3.2%	12.6%
OC[C@H]1O[C@@H](n2cnc3c(Nc4ccccc4)ncnc32)[C@H](O)[C@@H]1O	i	i	1e-09	nt	nt
CC(OC(=O)c1cc2sccc2n1C)C(=O)NCc1ccco1 (stereo not given)	i	i	1.82e-08	2.9%	10.4%
COC(=O)c1ccccc1NC(=O)Cn1nc(C(F)(F)F)c2c1CCC2	i	i	1.75e-08	-0.2%	?
Cc1noc(C)c1CSc1nnc(-c2c[nH]c3ccccc23)n1-c1ccc(Cl)cc1	i	i	2.66e-08	-1.2%	1.7%
N#Cc1c(N)c(C#N)c(-c2ccc(O)cc2)c2c1CCCC2	i	i	3.37e-08	0.8%	9.5%
O=c1c2c3c(sc2n2cnnc2n1-c1ccccc1)N(Cc1ccccc1)CCC3	i	i	1e-09	10.8%	-4.1%
CC(OC(=O)c1ccco1)C(=O)NCc1cccs1 (stereo not given)	i	i	1e-09	0.9%	-3.2%
COCCN(CCOC)S(=O)(=O)c1ccc(OC)cc1	i	i	8.8e-09	-3.2%	11.5%
COc1ccc(-n2c(Cc3cccn3C)nnc2SCC(=O)Nc2ccc3c(c2)OCO3)cc1	nt	nt	nt	3.2%	-1.0%
CC(=O)N(c1ccc(C(C)C)cc1)C1C=CS(=O)(=O)C1 (stereo not given)	i	i	2.43e-08	-0.5%	14.0%
Cc1ccc(CS(=O)(=O)CCC(=O)NCCN2CCCCC2C)cc1 (stereo not given)	i	i	1e-09	0.6%	5.7%
CCOC(=O)c1sc(-c2ccccc2)cc1N	i	i	3e-09	-1.1%	7.1%
Cc1nn2cc(-c3ccc(Cl)cc3)nc2s1	i	i	1.52e-08	-2.2%	-14.3%
CCOc1ccc(/C(O)=C2/C(=O)C(=O)N(CCOCCO)C2c2cccnc2)cc1 (stereo not given)	i	i	1e-09	1.1%	3.3%
CCOC(=O)C1CCN(C(=O)Nc2ccc3nc(C)c(C)nc3c2)CC1	i	i	2.19e-08	20.4%	-2.8%
O=C(NCCCN1CCOCC1)c1c(O)c2cc(Br)cc(Br)c2[nH]c1=O	i	i	1e-09	0.5%	3.6%
COc1ccc(N2CC(O)=C(c3nc(C)cs3)C2=N)cc1	i	i	4.8e-09	-0.5%	0.1%
COc1cc(S(=O)(=O)NCC2COCCO2)ccc1-n1cnnn1 (stereo not given)	i	i	1e-09	2.8%	-0.7%
Cc1ccc(CNC(=O)CCc2nc3ccccc3c(=O)[nH]2)cc1	i	i	1e-09	0.0%	2.9%
CC(C)(C)SCCNC(=O)CN(c1ccc(F)cc1)S(C)(=O)=O	nt	nt	nt	-1.7%	-4.8%[11.4 µM]
CC1CCN(C(=O)C2CCN(CCCc3ccccc3)CC2)CC1	i	i	2.4e-09	-0.9%	2.8%
CCOC(=O)c1[nH]c(C)c(C(=O)NCCN2CCOCC2)c1C	nt	nt	nt	2.2%	-4.7%
Cc1cc(=O)oc(C)c1C(=O)NCC1COc2ccccc2O1 (stereo not given)	i	i	6.7e-09	-0.3%	11.1%
Cc1ccc(C(=O)n2cnnc2N)cc1C	i	i	1.2e-09	1.5%	7.1%
COc1cccc(Cn2nnc(C(=O)Nc3cc(Cl)ccc3OC)c2N)c1	nt	nt	nt	0.4%	0.8%
COC(=O)c1ccc(Oc2nc3ccccc3n3c(C)nnc23)cc1	i	i	5.2e-09	nt	nt
CC(C)[C@H](NC(=O)OC(C)(C)C)c1nnc(S(=O)(=O)Cc2c(F)cccc2Cl)o1	i	i	5.9e-09	0.0%	16.9%
C=C(C)C(=O)OCCCCCC	nt	nt	nt	2.3%	?
CCOC(=O)Cn1c(=O)c2c(nc3n2CCN3c2ccc(C)cc2)n(C)c1=O	i	i	1e-09	-0.8%	-9.7%
CCCCc1cc(=O)oc2c(CN3CCCC3)c(O)ccc12	i	i	3.3e-09	nt	nt
COC(=O)C(NC(C)=O)(Nc1ccccn1)C(F)(F)F (stereo not given)	i	i	3.4e-09	nt	nt
COC(=O)c1sc(=S)n(-c2cccc(Cl)c2)c1N	i	i	1e-09	3.4%	-26.0%
CCC(C)(C)n1nnnc1C(C(C)C)N1CCC(C(N)=O)CC1 (stereo not given)	i	i	6.39e-08	1.5%	1.1%
O=c1c(Cc2ccccc2)c(O)nc2n1CCS2	i	i	1.64e-08	-0.3%	7.7%
CCCCCCN(C(=O)CCCCCN1C(=O)NC(c2cccc([N+](=O)[O-])c2)C(C(=O)OCc2ccccc2)=C1C)C(C(=O)NCCCC)c1ccc(OCC(=O)OC)c(C(=O)OC)c1 (stereo not given)	nt	nt	nt	0.0%	2.5%
CC(=O)c1c[nH]c2ccc(C)cc2c1=O	i	i	5.5e-09	10.3%	-3.9%
O=C(Cn1ccccc1=O)c1cccs1	i	i	1e-09	0.1%	?
O=C(CCc1nc(-c2ccccc2F)no1)NCCN1CCN(Cc2ccccc2)CC1	i	i	2.54e-08	-1.2%	9.0%
O=C(c1cc2ccccc2oc1=O)N1CCN(c2ccccn2)CC1	i	i	1.31e-08	-0.7%	-9.9%
C=CCn1c(=S)[nH]c2nc3c(cc2c1=O)CCCC3	i	i	2e-09	nt	nt
CC(=O)c1ccc(NC(=O)N[C@@H](CC(C)C)C(=O)O)cc1	i	i	4.05e-08	0.6%	-2.4%
Cc1cccc(-n2c(Cc3cc(=O)[nH]c(=O)[nH]3)nnc2SCC(=O)NCc2ccco2)c1	i	i	2.19e-08	1.3%	-1.0%
CCc1ccc(CCC(=O)Nc2nc(CC(C)=O)ns2)o1	i	i	2.76e-08	-1.3%	10.0%
Cc1ccc(S(=O)(=O)N2CCC(C(=O)N3CCC(C(=O)NCC4CCCO4)CC3)CC2)cc1 (stereo not given)	i	i	1.3e-09	-1.8%	-2.3%
CC(=O)Nc1cccc(NC(=O)CCn2c(=O)sc3ccccc32)c1	i	i	2.68e-08	-0.8%	2.4%
COc1ccc(CNC(=O)C(C)Cc2ccccc2)cc1O (stereo not given)	nt	nt	nt	-1.9%	?
COc1ccc(/C(O)=C(\C#N)c2nc3ccccc3n2C)cc1OC	i	i	1.49e-08	1.0%	?
O=C(NCCSc1c[nH]c2ccccc12)c1ccc(Br)o1	nt	nt	nt	2.3%	-1.1%
Cc1ccc(OCc2nn3c(-c4n[nH]c5c4CCC5)nnc3s2)cc1	i	i	9.8e-09	-0.3%	?
Cc1ccc(NS(=O)(=O)c2cccc(C(=O)N3CCOCC3)c2)cc1	i	i	4.9e-09	-3.0%	3.2%
CN(Cc1ccccc1)C(=O)c1cc(-c2ccc(Br)cc2)on1	i	i	3.68e-08	-0.7%	8.5%
More entries:
SMILES	Resorufin autofl	A488 autofl	A647 fluor	AID923	TSHR ag
c1ccc(Cn2nnc3c(N4CCN(Cc5ccc6c(c5)OCO6)CC4)ncnc32)cc1	i	i	1.16e-08	-1.0%	?
O=C(CCCOc1ccccc1)Nc1nnc(C2CCCO2)s1 (stereo not given)	i	i	8.7e-09	1.4%	2.0%
CCc1cc2c(=O)c(-c3nc4ccccc4n3C)c(C)oc2c(CN2CCN(CCO)CC2)c1O	nt	nt	nt	-1.1%	4.1%
CCCCOc1c(Cl)cc(CNC(C)(C)CO)cc1OCC	i	i	1.86e-08	2.0%	9.2%
NCc1ccc(S(N)(=O)=O)cc1	i	i	1e-09&3.1e-09	-0.3%	-13.2%[25.6 µM]
NC(=O)C1(N2CCCCC2)CCN(C(=O)CSc2nc3ccccc3s2)CC1	i	i	1.28e-08	2.0%	15.4%
COc1ccc2c(c1OC)C(=O)OC2Nn1cncn1 (stereo not given)	i	i	4.61e-08	-1.0%	-0.5%
COc1ccc(-c2nc(N3CCCC3)nc3nn4c(C)cc(C)nc4c23)cc1	i	i	3.58e-08	4.7%	-0.8%
COc1ccccc1-c1noc(-c2ccccc2)n1	i	i	1e-09	-1.0%	19.4%
N#Cc1ccc(CN2CCC3(CC2)CCN(C(=O)c2cnccn2)CC3)cc1	i	i	6.6e-09	4.9%	?
CN1CC[C@@]2(CCCN(C(=O)c3cccc(F)c3)C2)C1	i	i	1.81e-08	-0.4%	-3.4%
C=CCSc1nnc2n(CCc3ccccc3)c(=O)c3c4c(sc3n12)COC(C)(C)C4	i	i	2.9e-09	nt	nt
Cc1cccc(C)c1OCCOCCN1CCN(C)CC1	i	i	4.2e-08	-0.7%	-4.8%
CCc1noc(C)c1C(=O)N1CCCC1	i	i	3.84e-08	0.6%	3.2%
CCCCCc1nnc(NC(=O)Cc2cccs2)s1	i	i	6.88e-08	-0.5%	4.4%
CCCN1Cc2cccc(C(=O)NCc3ccccc3)c2C1=O	i	i	1e-09	-0.1%	11.6%
COc1c2occc2c(OC)c2c(=O)cc(C)oc12	i	i	1e-09&7e-09	-0.5%	-10.1%[25.6 µM]
CCOC(=O)N1CCN(c2c(NCCCN(CC)Cc3ccccc3)c(=O)c2=O)CC1	i	i	6.2e-09	0.0%	-6.6%[11.4 µM]
CCN(CC)S(=O)(=O)c1ccc(/C(O)=C2/C(=O)C(=O)N(CCOC)C2c2ccccc2)cc1 (stereo not given)	i	i	1.6e-08	-0.2%	3.0%
COc1cccc(S(=O)(=O)Nc2ccc(C(=O)NCc3ccco3)cc2)c1	i	i	4.24e-08	1.5%	6.1%
CC(=O)Nc1ccc(NC(=O)C2CC(=O)N(c3cccc(C)c3C)C2)cc1 (stereo not given)	nt	nt	nt	-0.8%	0.3%
COc1cccc(C(=O)Cn2c(=N)n(C)c3ccccc32)c1	i	i	7.9e-09	1.1%	10.6%
O=C(O)c1ccccc1OP(=O)(O)O	i	i	1e-09	0.5%	-0.8%[25.6 µM]
COC(=O)c1ccc(C(NC(=O)OCc2ccccc2)/C(=C/[C@@H](C)C(=O)NCc2ccc(S(C)(=O)=O)cc2)c2cccnc2)cc1 (stereo not given in full)	nt	nt	nt	2.6%	3.1%
Cc1ccc(C2Nc3ccccc3-c3nc4ccccc4n32)o1 (stereo not given)	i	i	2.9e-09	8.8%	?
CCOCCNC(=O)c1ccccc1C(=O)NCCOCC	i	i	2.9e-09	1.0%	-0.8%

Not all compounds are listed; the hit share may differ from the screen's.
